# Compound activity from PubChem BioAssay.
# FGF22 binding – binders of human FGF22 protein, primary screen, FGF22 synaptogenesis inhibitor project, biophysical, thermal shift, single point. calls only at 9.99 µM. AID 651658, 2012. recombinant FGF22 thermal shift, SYPRO orange fluorescence; percent of sucrose octasulfate shift, DMSO zero. 1.5% of 340,000 active;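 active means melting point raised past a set limit in the mean and every replicate; three in four hits are not shown here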
# Target sequence (Q9HCT0 whole entry, looked up): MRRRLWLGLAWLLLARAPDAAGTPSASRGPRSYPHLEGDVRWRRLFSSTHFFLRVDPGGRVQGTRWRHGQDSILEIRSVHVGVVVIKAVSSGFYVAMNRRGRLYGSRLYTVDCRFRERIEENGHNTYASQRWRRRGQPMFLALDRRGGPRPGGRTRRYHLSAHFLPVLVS
# AF4-AF9 inh – inhibitors of AF4 peptide binding to AF9, primary screen, biochemical, AlphaScreen, biotin-AF4 peptide, FLAG-AF9, single point; Protein AF-9 (Homo sapiens), P42568; inhibition, % at 10 µM; 0.47% of 350,000 active; AID 651704, 2012;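 active means every replicate reaching a set inhibition limit, whatever the replicate mean, cut at about 25% in these data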;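 further: 0% = plate neutral control median and 100% = total signal loss; the record names both 10 and 1 µM as test concentration; the first replicate is given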
# Target sequence (P42568 whole entry, looked up): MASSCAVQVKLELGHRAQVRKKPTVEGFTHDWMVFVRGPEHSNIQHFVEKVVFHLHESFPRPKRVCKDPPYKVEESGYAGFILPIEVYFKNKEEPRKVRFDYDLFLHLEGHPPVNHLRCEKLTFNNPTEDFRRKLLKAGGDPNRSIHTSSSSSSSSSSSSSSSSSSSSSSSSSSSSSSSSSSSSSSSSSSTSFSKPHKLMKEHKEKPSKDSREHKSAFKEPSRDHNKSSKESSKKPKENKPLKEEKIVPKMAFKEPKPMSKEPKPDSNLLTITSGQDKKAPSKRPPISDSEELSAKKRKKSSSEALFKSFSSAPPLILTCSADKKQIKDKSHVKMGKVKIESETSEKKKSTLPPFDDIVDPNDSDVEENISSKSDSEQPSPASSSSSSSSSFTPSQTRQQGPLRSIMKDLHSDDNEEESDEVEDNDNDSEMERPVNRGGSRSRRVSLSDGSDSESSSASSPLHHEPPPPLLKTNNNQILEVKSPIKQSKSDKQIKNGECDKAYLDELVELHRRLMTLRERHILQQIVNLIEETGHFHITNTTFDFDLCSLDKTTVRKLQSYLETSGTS
# * marks the source's active call; other numbers are inactive results; i = inactive.
# The first nine records as a preview:
SMILES,FGF22 binding,AF4-AF9 inh
CC(C)NC(=O)N(C)C[C@H]1Oc2ccc(N(C)C)cc2CC(=O)N([C@H](C)CO)C[C@@H]1C,i,-1.2
C[C@H]1CN([C@@H](C)CO)S(=O)(=O)c2ccc(C#Cc3ccccc3F)cc2O[C@H]1CN(C)C(=O)Cc1ccncc1,i,4.1
CCCNC(=O)N1CCC2(CC1)CN(Cc1cccc(F)c1)[C@@H](CO)c1[nH]c3cc(OC)ccc3c12,i,0.8
CC=Cc1ccc2n(c1=O)C[C@H]1[C@H](CO)[C@@H](C(=O)N(C)C)[C@@H]2N1Cc1cc(F)ccc1F (mixture of isomers),i,3.3
COc1ccc(S(=O)(=O)Nc2ccc3c(c2)C(=O)N([C@H](C)CO)C[C@H](C)[C@@H](CN(C)Cc2ccc4c(c2)OCO4)OCCCC[C@H](C)O3)cc1,i,2.0
COCC(=O)N1CCC2(CC1)CN(Cc1ccccn1)[C@H](CO)c1[nH]c3cc(OC)ccc3c12,i,-2.9
O=C(O)C[C@@H]1CC[C@H](NC(=O)Nc2ccccc2)[C@H](CO)O1,i,-1.6
CC(C)(O)C#Cc1ccc([C@H]2[C@H]3CN(C(=O)c4cccnc4)CCCCN3[C@H]2CO)cc1,i,15
C[C@@H]1CN([C@H](C)CO)C(=O)c2cc(Br)cnc2O[C@H]1CN(C)C(=O)Nc1ccc(F)cc1,i,-0.9

# Results, from the first entry:
SMILES,FGF22 binding,AF4-AF9 inh
CC(C)NC(=O)N(C)C[C@H]1Oc2ccc(N(C)C)cc2CC(=O)N([C@H](C)CO)C[C@@H]1C,i,-1.2
C[C@H]1CN([C@@H](C)CO)S(=O)(=O)c2ccc(C#Cc3ccccc3F)cc2O[C@H]1CN(C)C(=O)Cc1ccncc1,i,4.1
CCCNC(=O)N1CCC2(CC1)CN(Cc1cccc(F)c1)[C@@H](CO)c1[nH]c3cc(OC)ccc3c12,i,0.8
CC=Cc1ccc2n(c1=O)C[C@H]1[C@H](CO)[C@@H](C(=O)N(C)C)[C@@H]2N1Cc1cc(F)ccc1F (mixture of isomers),i,3.3
COc1ccc(S(=O)(=O)Nc2ccc3c(c2)C(=O)N([C@H](C)CO)C[C@H](C)[C@@H](CN(C)Cc2ccc4c(c2)OCO4)OCCCC[C@H](C)O3)cc1,i,2.0
COCC(=O)N1CCC2(CC1)CN(Cc1ccccn1)[C@H](CO)c1[nH]c3cc(OC)ccc3c12,i,-2.9
O=C(O)C[C@@H]1CC[C@H](NC(=O)Nc2ccccc2)[C@H](CO)O1,i,-1.6
CC(C)(O)C#Cc1ccc([C@H]2[C@H]3CN(C(=O)c4cccnc4)CCCCN3[C@H]2CO)cc1,i,15
C[C@@H]1CN([C@H](C)CO)C(=O)c2cc(Br)cnc2O[C@H]1CN(C)C(=O)Nc1ccc(F)cc1,i,-0.9
C[C@H](CO)N1C[C@H](C)[C@H](CN(C)C(=O)Cc2ccccc2)OCCCC[C@H](C)Oc2ccc(NC(=O)Nc3ccccc3)cc2C1=O,i,-2.5

# Exported with tabs: entries from further up.
Structure	FGF22 binding	AF4-AF9 inh
COc1ccc(S(=O)(=O)Nc2ccc3c(c2)C(=O)N([C@H](C)CO)C[C@H](C)[C@@H](CN(C)Cc2ccc4c(c2)OCO4)OCCCC[C@H](C)O3)cc1	i	2.0
COCC(=O)N1CCC2(CC1)CN(Cc1ccccn1)[C@H](CO)c1[nH]c3cc(OC)ccc3c12	i	-2.9

# Further structures:
SMILES,FGF22 binding,AF4-AF9 inh
CCCC(=O)Nc1ccc2c(c1)C(=O)N(C)C[C@H](OC)[C@@H](C)CN(CCc1ccccc1)[C@H](C)CO2,i,0.5
C[C@H]1CN([C@@H](C)CO)C(=O)c2cc(-c3cccnc3)cnc2O[C@H]1CN(C)C(=O)C1CCC1,i,-4.6
CO[C@@H]1CN(C)C(=O)c2ccc(NC(=O)C3CCOCC3)cc2OC[C@@H](C)N(C(=O)c2ccccc2)C[C@@H]1C,i,-1.7
Cc1ccc(S(=O)(=O)N[C@@H]2C=C[C@H](CC(=O)NCCCN(C)C)O[C@@H]2CO)cc1,i,-1.2
C[C@H](CO)N1C[C@H](C)[C@H](CN(C)C(=O)Nc2ccc(C(F)(F)F)cc2)Oc2c(NS(=O)(=O)c3ccc(Cl)cc3)cccc2C1=O,i,1.5
C[C@@H]1CN([C@H](C)CO)C(=O)c2c(c3ccccc3n2C)-c2ccccc2CO[C@H]1CN(C)S(=O)(=O)c1ccccc1,i,0.6
CN(C)C(=O)[C@@H]1[C@@H](CO)[C@@H]2Cn3c(ccc(C4=CCCC4)c3=O)[C@H]1N2C(=O)c1ccccc1,i,-0.4
CCC(=O)Nc1ccc2c(c1)OC[C@@H](C)NC[C@@H](C)[C@H](OC)CN(C)C2=O,i,-0.8
Cc1noc(C)c1NC(=O)Nc1ccc2c(c1)CC(=O)N([C@@H](C)CO)C[C@H](C)[C@H](CN(C)C(=O)Nc1cccc3ccccc13)O2,i,0.5
C[C@H](CO)N1C[C@H](C)[C@H](CN(C)Cc2ccncc2)Oc2cc(C#C[C@@H](C)O)ccc2S1(=O)=O,i,-0.5
C[C@@H]1CN([C@@H](C)CO)S(=O)(=O)c2ccc(Br)cc2O[C@H]1CN(C)C(=O)CC1CC1,i,-0.4
Cc1noc(C)c1NC(=O)Nc1ccc2c(c1)C(=O)N([C@@H](C)CO)C[C@@H](C)[C@H](CN(C)C(=O)Nc1ccccc1)OCCCC[C@@H](C)O2,i,0.8
C[C@H](O)C#Cc1cnc2c(c1)C(=O)N([C@@H](C)CO)C[C@@H](C)[C@@H](CN(C)C(=O)CN(C)C)O2,i,-3.7
C[C@@H]1CN([C@H](C)CO)C(=O)c2cc(C3=CCCCC3)cnc2O[C@@H]1CN(C)C(=O)c1ccccn1,i,-4.4
C[C@@H]1CN([C@H](C)CO)C(=O)c2cc(NC(=O)C3CCCCC3)ccc2O[C@@H]1CN(C)Cc1ccc(C(=O)O)cc1,i,-4.3
COCC(=O)Nc1ccc2c(c1)[C@H]1C[C@@H](CC(=O)NCCN3CCCCC3)O[C@@H](CO)[C@H]1O2,i,-9.3
C[C@H]1CN([C@@H](C)CO)C(=O)Cc2cc(NS(C)(=O)=O)ccc2O[C@@H]1CN(C)Cc1ccc(Oc2ccccc2)cc1,i,1.0
C[C@@H]1CN([C@H](C)CO)C(=O)c2cccc(NC(=O)c3nc4ccccc4s3)c2O[C@@H]1CN(C)CC1CC1,i,8.8
C[C@@H]1CCCCO[C@H](CN(C)C(=O)C2CCCCC2)[C@@H](C)CN([C@@H](C)CO)C(=O)c2cc(NC(=O)C3CCCCC3)ccc2O1,i,0.8
COCC(=O)N1C[C@H](C)[C@H](OC)CN(C)C(=O)c2ccc(NC(=O)c3cc(C)on3)cc2OC[C@H]1C,i,-1.6
C[C@H](CO)N1C[C@H](C)[C@@H](CN(C)C(=O)Nc2ccc(C(F)(F)F)cc2)Oc2c(NC(=O)C3CCOCC3)cccc2C1=O,i,-1.2
COC(=O)C[C@@H]1CC[C@@H]2[C@H](COC[C@H](O)CN2C(=O)Nc2ccccc2OC)O1,i,1.3
CO[C@@H]1CN(C)C(=O)c2cc(NS(=O)(=O)c3ccccc3)ccc2OC[C@@H](C)N(Cc2nccs2)C[C@@H]1C,i,0.7
C[C@H](CO)N1C[C@H](C)[C@H](CN(C)C(=O)NC2CCCCC2)Oc2ccc(NC(=O)Nc3ccc(C(F)(F)F)cc3)cc2CC1=O,i,3.7
O=C(C[C@@H]1C=C[C@@H](NC(=O)c2ccc(F)cc2)[C@H](CO)O1)NCCc1ccccc1,i,-1.7
C[C@@H]1CN([C@H](C)CO)C(=O)c2cc(NC(=O)Cn3cnnn3)ccc2O[C@H]1CN(C)C,i,-1.1
COc1ccc(NC(=O)Nc2ccc3c(c2)C(=O)N([C@@H](C)CO)C[C@H](C)[C@H](CN(C)C(=O)Nc2ccc(OC)cc2)OCCCC[C@H](C)O3)cc1,i,-4.1
Cc1ccc(S(=O)(=O)Nc2ccc3c(c2)C(=O)N([C@@H](C)CO)C[C@H](C)[C@H](CN(C)C(=O)Nc2ccc(F)cc2)OCCCC[C@@H](C)O3)cc1,i,-2.2
CCCNC(=O)N1CC2(CCN(C(=O)CC3CC3)CC2)c2c(n(C)c3cc(OC)ccc23)[C@@H]1CO,i,-1.0
O=C([C@@H]1[C@@H](CO)[C@@H]2Cn3c(ccc(-c4ccncc4)c3=O)[C@H]1N2Cc1ccccc1)N1CCOCC1,i,-0.4
Cc1cccc(S(=O)(=O)N[C@H]2CC[C@@H](CCNC(=O)CCN3CCCCC3)O[C@H]2CO)c1,i,-1.0
C[C@@H]1CN([C@@H](C)CO)C(=O)c2cccc(NC(=O)c3nc4ccccc4s3)c2O[C@H]1CN(C)S(=O)(=O)c1ccc(Cl)cc1,i,-0.2
C/C=C/c1ccc([C@@H]2[C@H](CO)N[C@H]2CNS(=O)(=O)c2ccccc2)cc1,i,0.3
Cc1ccc(S(=O)(=O)N(C)C[C@H]2Oc3ccc(NS(=O)(=O)c4ccc(Cl)cc4)cc3CC(=O)N([C@@H](C)CO)C[C@@H]2C)cc1,i,-2.2
COc1ccccc1-c1ccc([C@H]2[C@@H](C#N)N(C(=O)C3CCC3)[C@H]2CO)cc1,i,-0.5
N#C[C@@H]1[C@@H](c2ccc(-c3ccccc3F)cc2)[C@H](CO)N1C(=O)Cc1ccccc1,i,-0.9
COc1ccccc1-c1ccc2c(c1)O[C@H](CN(C)S(=O)(=O)c1ccc(C)cc1)[C@@H](C)CN([C@@H](C)CO)S2(=O)=O,i,-2.6
CO[C@@H]1CN(C)C(=O)c2ccc(NC(=O)c3cc(C)on3)cc2OC[C@@H](C)N(S(=O)(=O)c2cccc(C)c2)C[C@H]1C,i,2.0
O=C(C[C@@H]1CC[C@@H](NC(=O)Nc2ccccc2)[C@H](CO)O1)NCc1ccccn1,i,0.4
CCCNC(=O)N1[C@@H]2c3ccc(-c4ccccc4OC)c(=O)n3C[C@H]1[C@H](CO)[C@H]2C(=O)NCC,i,-1.1
O=C(C[C@@H]1C[C@H]2c3cc(NC(=O)Nc4ccccc4F)ccc3O[C@H]2[C@@H](CO)O1)NCc1cc(F)ccc1F,i,-7.3
C[C@H]1CN([C@@H](C)CO)C(=O)c2cccc(NC(=O)C3CCCCC3)c2O[C@@H]1CN(C)Cc1ccccc1,i,4.0
O=C(NCC[C@H]1CC[C@@H](NC(=O)Nc2cc(F)ccc2F)[C@@H](CO)O1)Nc1ccc(F)cc1,i,15
CC(C)NC(=O)N(C)C[C@@H]1Oc2ccc(NS(=O)(=O)c3ccc(F)cc3)cc2C(=O)N([C@@H](C)CO)C[C@@H]1C,i,-1.1
C[C@H](CO)N1C[C@H](C)[C@H](CN(C)C(=O)Nc2cccc3ccccc23)OCCCC[C@H](C)Oc2ccc(NC(=O)Nc3cccc4ccccc34)cc2C1=O,i,0.2
C[C@H]1CN([C@@H](C)CO)C(=O)c2cc(NS(C)(=O)=O)ccc2O[C@@H]1CN(C)S(=O)(=O)c1cn(C)cn1,i,-2.7
C[C@@H]1CCCCO[C@H](CN(C)Cc2ccc3c(c2)OCO3)[C@@H](C)CN([C@@H](C)CO)C(=O)c2cc(NC(=O)Nc3ccc(C(F)(F)F)cc3)ccc2O1,i,11
O=C(NCC[C@H]1CC[C@@H](NC(=O)c2ccncc2)[C@H](CO)O1)Nc1ccc(Cl)cc1,i,12
C[C@H]1CCCCO[C@@H](CN(C)C(=O)CCCN(C)C)[C@@H](C)CN([C@@H](C)CO)C(=O)c2cc(NC(=O)c3ccccc3)ccc2O1,i,-0.9
O=C(N[C@@H]1CC[C@@H](CCNS(=O)(=O)c2ccc(F)cc2)O[C@@H]1CO)c1ccccn1,i,1.1

# New compounds follow.
SMILES,FGF22 binding,AF4-AF9 inh
CCC(=O)N1[C@@H](CO)[C@@H]2c3ccccc3N(C(=O)Nc3cccc(Cl)c3)C[C@@H]21,i,-0.6
CO[C@@H](CN(C)C(=O)c1cnccn1)[C@@H](C)CN([C@H](C)CO)S(=O)(=O)c1ccc(F)cc1,i,0.1
O=C(Cc1cccnc1)N[C@H]1CC[C@H](CCn2cc(-c3ccccc3F)nn2)O[C@@H]1CO,i,2.6
CC(=O)N[C@H]1[C@H](O/N=[N+](\[O-])N2CCCC2)OC(CO)[C@@H](O)[C@@H]1O (some centres not stated),i,-5.4
CC=Cc1ccc2n(c1=O)C[C@@H]1[C@@H](CO)[C@H](C(=O)NCC)[C@H]2N1C(=O)c1ccc(F)cc1 (mixture of isomers),i,-2.2
CO[C@H]1CN(C)C(=O)c2ccc(NC(=O)C3CCOCC3)cc2OC[C@@H](C)N(CC2CC2)C[C@@H]1C,i,-8.0
C[C@@H]1CN([C@H](C)CO)C(=O)Cc2cc(NS(=O)(=O)c3cccs3)ccc2O[C@@H]1CN(C)S(C)(=O)=O,i,-2.3
Cc1ccc(S(=O)(=O)N(C)C[C@@H]2Oc3c(NS(C)(=O)=O)cccc3C(=O)N([C@@H](C)CO)C[C@@H]2C)cc1,i,0.1
O=C(Nc1ccccc1Cl)N1C[C@@H]2[C@H](c3ccccc31)[C@@H](CO)N2C(=O)c1cccnc1,i,-0.9
C[C@@H]1CN([C@H](C)CO)S(=O)(=O)c2ccc(-c3cccc(C#N)c3)cc2O[C@H]1CN(C)C(=O)C1CC1,i,0.6
O=C(C[C@H]1CC[C@@H]2[C@H](COC[C@@H](O)CN2Cc2ccc3c(c2)OCO3)O1)Nc1ccc(-c2ccccc2)cc1,i,0.9
O=C(Nc1ccc(F)cc1)N1CCCCN2[C@H](C1)[C@H](c1ccc(-c3ccccc3F)cc1)[C@@H]2CO,i,-4.4
COc1cccc(C(=O)N2C[C@@H]3[C@H](c4ccccc42)[C@@H](CO)N3C(=O)c2cccc(F)c2)c1,i,0.1
C[C@@H]1CN([C@@H](C)CO)C(=O)c2cc(NC(=O)Nc3ccc4c(c3)OCO4)ccc2O[C@H]1CN(C)C(=O)Nc1ccc(C(F)(F)F)cc1,i,4.0

# The list is partial; count on the stated rates, not on these rows.
